NPYLR7 ag = mosquito NPYLR7 agonism; HEK293T NPYLR7/Galpha15, GCaMP6s calcium fluorescence; activation, % at 10 µM; 0.15% of 270,000 active; AID 1259423; in the data active = activation above about 40%;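 note: 0% = vehicle and 100% = reference agonist at the receptor; some compounds past the cut are filed as inactive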
NPYLR7 ag max-min = second read-out of NPYLR7 ag, no call of its own (marks repeat the call); activation, %; measured here: Max-Min RFU normalised activation; some inactives read as strong as hits;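 span of the calcium signal over five minutes; 0% = vehicle and 100% = native peptide agonist; compound fluorescence can raise it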
The depositor's hits bear a star; & = joins results of further samples. The list is partial (hit frequency here may not be typical).

canonical_smiles | NPYLR7 ag | NPYLR7 ag max-min
CCOc1ccc(NC(=O)Cn2c(=O)n(Cc3ccco3)c(=O)c3sc4ccccc4c32)cc1 | 2 | 0
Cc1cc(C)c(NC(=O)CCC(=O)NCC(C)n2cncn2)c(C)c1 (stereo not drawn) | 0 | -1
NC(=O)c1ccc(NC(=O)CS(=O)(=O)c2cn(CC(=O)N3CCCCCC3)c3ccccc23)cc1 | -5 | -11
O=c1[nH]c(CN2CCc3ccccc3C2)nc2ccccc12 | 5 | 6
CCOc1ccc(CN(CCN2CCOCC2)Cc2nc(C(=O)NCc3ccco3)co2)cc1 | 28 | 27
CCOc1ccc(-c2nc3ccc(C)cn3c2NC2CCCCC2)cc1 | 14 | 12
Cc1cc(=O)[nH]c(-n2nc(-c3cccs3)cc2NC(=O)Cc2ccc(F)cc2)n1 | -1 | -2
Cn1c(SCC(=O)c2ccc(S(C)(=O)=O)cc2)nnc1-c1ccccc1 | 5 | -1
Cc1ccc(S(=O)(=O)N(CCC(=O)O)c2ccccc2)cc1 | -2 | 1
Cc1c(C(=O)N2CCN(c3ccccc3)CC2)sc2nc(-c3cccc([N+](=O)[O-])c3)cn12 | 2 | -3
COc1ccc(CNC(=O)c2sc3nc4c(c(C(F)(F)F)c3c2N)CN(C(C)=O)CC4)cc1 | -7 | -13
Cc1ccc(-c2ccc(N3CCCN(C(=O)CN(C(=O)c4ccccc4F)C(C)C)CC3)nn2)cc1 | 1 | -2
Cc1ccc(C)c(S(=O)(=O)N=C2C=C(SCC(=O)O)C(=O)c3ccccc32)c1 | -2 | -5
CC(C)Oc1ccccc1C(C)NC(=O)Cc1cccs1 (stereo not drawn) | -5 | -5
Cc1nn(CCC(=O)n2cnc3ccccc32)c(C)c1Br | 2 | 2
CCNC(=O)c1ccc(CSc2nc(C)cc(N(C)C)n2)cc1 | -3 | 2
COc1ccc(-c2noc(CN3CCN(Cc4cccc(C)c4)CC3)n2)c(OC)c1OC | 0 | -6
CSc1ccc(C(NC(=O)C2=Cc3cc(Cl)ccc3OC2)c2cccc(Cl)c2Cl)cc1 (stereo not drawn) | -15 | -26
CC1CCN(C(=O)CSc2nc3c(c(=O)n2C)SCC3)CC1 | -3 | -4
Cc1ccc(NC(=O)Cn2nc3ccc(SCc4ccc(Cl)cc4)nn3c2=O)c(C)c1 | 4 | 4

Carrying on.
canonical_smiles | NPYLR7 ag | NPYLR7 ag max-min
O=C(NCCCn1nc(-c2cccnc2)ccc1=O)c1cccc(C(F)(F)F)c1 | -5 | -7
CSc1nn(-c2cc(Oc3cc(C)ccc3C)ncn2)c(N)c1C#N | 6 | 12
COc1ccc(C(=O)N2C[C@@H](O)[C@H](NCCN3CCNC3=O)C2)cc1 | 3 | 1
Cc1nc2ccc(C(=O)N[C@@]3(c4ccccc4)CCCC[C@H]3O)cc2nc1C | 10 | 13
Cc1cc(=O)c(C(=O)NCc2cccnc2N(C)Cc2ccccc2)c[nH]1 | 0 | -4
CCOc1ccc(-c2nc3c(c(SCC(N)=O)n2)Cc2cc(C)ccc2O3)cc1 | 11 | 11
COc1cccc(CC(=O)NCc2ccsc2)c1 | 14 | 5
CCCc1n[nH]c(=S)s1 | -5 | -10
O=C1/C(=C/c2ccc(-c3ccc(Cl)c(Cl)c3)o2)C=C(c2ccccc2)N1c1ccc2ncccc2c1 | -4 | -1
Cc1ccc(S(=O)(=O)CCCS(=O)(=O)N(C)C)c(C)c1 | 0 | -1
Cc1ccccc1C1=NOC(CN(Cc2ccc(F)cc2F)CC(O)COCc2ccco2)C1 (stereo not drawn) | -4 | 3
COc1nc2ccccc2cc1-c1cc(C)cnc1-n1cnnc1 | 4 | 1
Cc1cccc(NC(=O)NCCCn2nc(-c3ccncc3)ccc2=O)c1 | 11 | 1
CCn1ncc(CN2CCOC(CCCc3ccccc3)C2)c1C (stereo not drawn) | 3 | 0
CC(=O)Nc1ccc(-c2nccn2Cc2ccc3c(c2)OCO3)cc1 | 0 | 0
COc1ccc(CCNC(=O)Cc2csc(NC(=O)CN(C(=O)C3CCCCC3)C3CC3)n2)cc1OC | -8 | -1
O=C(Nc1ccc2c(c1)OCCCO2)c1c(-n2cccc2)sc2c1CCSC2 | -4 | -4
Cn1c(=NN=C2CCCc3ccccc32)sc2ccccc21 | 3 | 10
COc1cc(OC)c(NC(=O)c2ccc3c(c2)OCCO3)cc1Cl | -9 | -11
O=C(NC1CC1)c1cc2n(n1)CCN(C(=O)C1C=CCN1)C2 (stereo not drawn) | -1 | -5

Reformatted with values under each structure: part of the list above
Second line of a record: NPYLR7 ag | NPYLR7 ag max-min
- Cc1cc(=O)c(C(=O)NCc2cccnc2N(C)Cc2ccccc2)c[nH]1
 : 0 | -4
- CCOc1ccc(-c2nc3c(c(SCC(N)=O)n2)Cc2cc(C)ccc2O3)cc1
 : 11 | 11
- COc1cccc(CC(=O)NCc2ccsc2)c1
 : 14 | 5
- CCCc1n[nH]c(=S)s1
 : -5 | -10
- O=C1/C(=C/c2ccc(-c3ccc(Cl)c(Cl)c3)o2)C=C(c2ccccc2)N1c1ccc2ncccc2c1
 : -4 | -1
- Cc1ccc(S(=O)(=O)CCCS(=O)(=O)N(C)C)c(C)c1
 : 0 | -1
- Cc1ccccc1C1=NOC(CN(Cc2ccc(F)cc2F)CC(O)COCc2ccco2)C1 (stereo not drawn)
 : -4 | 3
- COc1nc2ccccc2cc1-c1cc(C)cnc1-n1cnnc1
 : 4 | 1
- Cc1cccc(NC(=O)NCCCn2nc(-c3ccncc3)ccc2=O)c1
 : 11 | 1
- CCn1ncc(CN2CCOC(CCCc3ccccc3)C2)c1C (stereo not drawn)
 : 3 | 0
- CC(=O)Nc1ccc(-c2nccn2Cc2ccc3c(c2)OCO3)cc1
 : 0 | 0
- COc1ccc(CCNC(=O)Cc2csc(NC(=O)CN(C(=O)C3CCCCC3)C3CC3)n2)cc1OC
 : -8 | -1
- O=C(Nc1ccc2c(c1)OCCCO2)c1c(-n2cccc2)sc2c1CCSC2
 : -4 | -4
- Cn1c(=NN=C2CCCc3ccccc32)sc2ccccc21
 : 3 | 10
- COc1cc(OC)c(NC(=O)c2ccc3c(c2)OCCO3)cc1Cl
 : -9 | -11
- O=C(NC1CC1)c1cc2n(n1)CCN(C(=O)C1C=CCN1)C2 (stereo not drawn)
 : -1 | -5

(further entries)
canonical_smiles | NPYLR7 ag | NPYLR7 ag max-min
COCCNc1nc(-c2cccc(Br)c2)nc2ccccc12 | 3 | 14
O=C(c1cc(COc2cncc(Cl)c2)on1)N1CCCC1c1ccccn1 (stereo not drawn) | 0 | -4
COc1ccc(S(=O)(=O)N(C(C)=O)c2cc3sc(=O)oc3c3ccccc23)cc1 | 9 | 8
Cc1ccccc1OCC(=O)NCC(c1ccc2c(c1)CCCN2C)N1CCN(C)CC1 (stereo not drawn) | 9 | 5
COCCCNC(=O)CN(C)C(=O)c1cc(C)ccc1O | 11 | 9
CC(C)CSc1nnc(-c2cccc([N+](=O)[O-])c2)o1 | 20 | 12
COc1ccccc1NC(=O)Nc1ccnn1C1CCN(C(=O)NC2CCCCC2)CC1 | 2 | -2
CCCCN(C(=O)c1cnc2n(c1=O)CCS2)c1ccccc1 | 1 | -2
N[C@@H](C(=O)NCCNc1cccnc1)c1ccccc1 | 24 | 19
COc1cccc(CSc2nnc(CNC(=O)Nc3ccc(SC)cc3)n2-c2ccc(Cl)cc2Cl)c1 | 17 | 17
CCN(CC(=O)N(Cc1cccn1Cc1ccccc1Cl)CC(C)C)C(=O)c1ccc(F)cc1 | -1 | 7
O=C(c1cc2n(n1)CCN(Cc1ccccc1Cl)C2=O)N1CCN(C(=O)c2ccco2)CC1 | 16 | 6
C=CCNC(=O)OC1CN(CC=C)C(=O)CN(C(=O)c2ccccc2)C1 (stereo not drawn) | 0 | 11
COCCN(CC(=O)N1CCc2sccc2C1c1ccc(Cl)cc1)C(=O)N(C)C (stereo not drawn) | -11 | -4
COCCNC(=S)NN=C1CC(C)CC(C)(C)C1 (stereo not drawn) | 1 | 0
CCC(=O)c1ccc(-c2ccc(Br)cc2F)cc1 | 8 | 2
O=C(NC(c1ccc(Cl)cc1)c1cnccn1)C1CCN(Cc2ccncc2)CC1 (stereo not drawn) | -9 | -13
O=C(Nc1ccc(S(=O)(=O)NC2CC2)cc1)c1ccc(C(F)(F)F)cn1 | 27 | 23
CC(C)NC(=O)CN(C)Cc1nc(N)c2c3c(sc2n1)CCCCC3 | 1 | 0
Cn1nc(C(=O)N2CCNCC2C(=O)NC2CC2)c2c1CCCC2 (stereo not drawn) | -4 | -8

Next entries follow.
canonical_smiles | NPYLR7 ag | NPYLR7 ag max-min
Cc1cc(C)c(C)c(OCc2nc(C(=O)NC(C)c3ccccc3)cs2)c1 (stereo not drawn) | 25 | 26
CC(c1ccccc1)N(C)C(=O)NCc1cccc(Cl)c1 (stereo not drawn) | -8 | -8
Cc1ccc(-c2cn(CCN3CCCOC3=O)nn2)o1 | 5 | 2
COc1ccc(C(O)c2nc(-c3cnn(C)c3)cs2)cc1 (stereo not drawn) | 0 | -1
CCOC(=O)c1ccc(NC(=O)NCc2nnc(SCc3ccccc3C)n2-c2ccc(Cl)cc2Cl)cc1 | 0 | 1
COc1ccc(OC)c(NC(=O)N(C)CCc2ccc(OC)c(OC)c2)c1 | 2 | -3
O=C(NCc1cccnc1Oc1ccc(F)cc1F)c1n[nH]c2c1CCC2 | 1 | 1
CCn1cc2nc(OC)c(CNC(=O)C3COCCO3)cc2c1O (stereo not drawn) | 6 | 0
c1cc(C2CCCC2)nc(NC2CCOC2)n1 (stereo not drawn) | 18 | 12
CCc1ccc(C(=O)Nc2ccc(N3CCCC3)c(C(=O)NC(C)c3ccccc3)c2)cc1 (stereo not drawn) | -6 | -3
CCOC(=O)c1nc2ccccc2nc1N1CCCN(C(=O)CCc2ccccc2)CC1 | 3 | -2
Cc1nnc(N(C)CC(=O)Nc2ccccc2Br)s1 | -25&8 | -26&4
Cc1ccc(-n2cc(CN(C)Cc3ccon3)c(-c3cccc(C)c3)n2)cc1 | 18 | 6
O=c1[nH]c(N2CCCC2)cc2ccccc12 | 7 | 8
NC(=O)c1cc2cc(Br)ccc2o1 | 0 | 5
Cc1ncsc1CCN(C)C(=O)c1cc2n(n1)CCN(C)C2 | 0 | -2
Cn1cc(C(CC(=O)N2CCN(c3ccc([N+](=O)[O-])cc3)CC2)c2ccc(Cl)cc2)c2ccccc21 (stereo not drawn) | -2 | 5
NCc1ccc(S(=O)(=O)N2CCCCC2)s1 | 9 | 8
CC(C)(C)c1cc(N2CCOCC2)nc(SCc2ccc(C(=O)O)o2)n1 | 12 | 11
Cc1nnc(C(C)S(=O)(=O)Cc2nnnn2-c2ccc(Cl)cc2C(F)(F)F)o1 (stereo not drawn) | 2 | 1

Next entries
canonical_smiles | NPYLR7 ag | NPYLR7 ag max-min
O=C(NCC(=O)N1CCC(C(=O)c2ccccc2)CC1)c1ccc(Cl)c(Cl)c1 | 12 | 14
CCN(CC)C(CNc1ccc(S(=O)(=O)N2CCOCC2)cc1[N+](=O)[O-])CC(C)C (stereo not drawn) | 2 | -3
Cc1cccn2c(NCc3ccccc3)c(-c3ccc(F)cc3)nc12 | 4 | 11
Cc1ccc(CSc2nc(=O)n(Cc3ccccn3)c3c2CCC3)cc1 | 20 | 10
Cc1ccc(C)c(S(=O)(=O)NC(=O)c2ccc(N3C(=O)CCC3=O)cc2)c1 | 18 | 11
CCOc1ccccc1CN(Cc1ccoc1)C1CC1 | 9 | -5
CC(C)(C)C1c2[nH]c3ccccc3c2CCN1CCCn1cccn1 (stereo not drawn) | 3&-1 | 2&-5
CC(C)c1ccc(NC2CCCN(CC(C)(C)CO)C2)cc1 (stereo not drawn) | 9 | 5
Cc1cc2c(=O)n(C)c(SCC(=O)NCc3ccccc3)nc2s1 | -9 | -12
CN(C)S(=O)(=O)c1cccc(NC2=NCCS2)c1 | -32 | -32
CCN(CC)C(=O)Oc1ccc2c(ccn2Cc2ccccc2Cl)c1NC(=O)CCCCC(=O)OC | 1 | -3
O=c1[nH]c(CN2CCCC2c2cccs2)nc2scc(-c3ccco3)c12 (stereo not drawn) | 34 | 33
S=c1[nH]nc(-c2ccccc2)n1N=Cc1ccc(Br)s1 | 7 | 4
CCc1ccc(-n2ccc3c(cnc4ncnn43)c2=O)cc1 | 2 | 8
CN(C)CCNC(=O)C12CC3(C)CC(C)(CC(Br)(C3)C1)C2 | 1 | 3
CC(C)c1nnc(SCCC(=O)NC(=O)NC2CCCC2)n1C1CC1 | -1 | -4
O=C(CCc1cc2c(n1-c1ccc3c(c1)OCO3)-c1ccccc1CC2)NCC1CCCO1 (stereo not drawn) | -3 | -4
CCOC(=O)C1=C(CN2CCCc3cc(C(F)(F)F)ccc32)NC(=O)NC1 | 11 | 6
CC(=O)Nc1cccc2c1CCN(Cc1nccs1)C2 | -21 | -22
O=C(c1cccs1)N1CCCC(OCc2ccc(F)cc2)C1 (stereo not drawn) | -1 | 1

Further compounds.
canonical_smiles | NPYLR7 ag | NPYLR7 ag max-min
CC1SC(c2ccc(C(F)(F)F)cc2)N(CCO)C1=O (stereo not drawn) | 0 | -5
COc1ccc(CN(C)c2c(C)nc3c(OCC(=O)C(C)(C)C)cccn23)cc1 | 5 | -6
COCc1ncc(CN2CCN(Cc3ncccc3C)CC2)cn1 | 0 | -4
CCN1C[C@H]2CN(C)c3ccccc3[C@@H]2N(C(=O)COC(C)=O)CCC1=O | 0 | 4
COCCCNc1oc(-c2ccc(COc3ccccc3C)o2)nc1C#N | 0 | 31
CCSc1nc(NCC(C)C)c2cnn(CCNC(=O)Cc3cccs3)c2n1 | 0 | -1
Cc1ccc2c(C)[n+](C)ccn12 | -14 | -22

High-throughput results: PubChem, Fisher Drug Discovery Resource Center
